# Screens: PubChem BioAssay, ICCB-Longwood Screening Facility, Harvard Medical School
# Polio RdRp inh = inhibitors of poliovirus RNA polymerase binding and polymerization. P03300. hit rate 0.66% among 150,000. poliovirus polymerase elongation, fluorescence polarization; stronger effect = lower value. % elongation, % (compound at 16.7 µg/mL); in the data active means % elongation below about 90%; further: some results filed as inactive read as strong as hits
# Target sequence (P03300 1749-2209 limits assumed): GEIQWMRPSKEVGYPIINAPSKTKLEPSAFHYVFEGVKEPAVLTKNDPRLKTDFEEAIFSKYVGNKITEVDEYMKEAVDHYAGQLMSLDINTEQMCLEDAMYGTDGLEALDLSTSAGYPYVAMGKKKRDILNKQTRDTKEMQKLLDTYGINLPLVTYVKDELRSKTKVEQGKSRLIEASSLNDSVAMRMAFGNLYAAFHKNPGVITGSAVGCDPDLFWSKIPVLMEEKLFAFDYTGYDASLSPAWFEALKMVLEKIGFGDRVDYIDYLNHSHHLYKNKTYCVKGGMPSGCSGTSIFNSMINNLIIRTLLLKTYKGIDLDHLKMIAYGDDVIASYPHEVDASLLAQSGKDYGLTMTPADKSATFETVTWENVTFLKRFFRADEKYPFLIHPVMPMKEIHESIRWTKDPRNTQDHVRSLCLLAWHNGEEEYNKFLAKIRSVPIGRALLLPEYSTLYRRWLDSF
# Polio RdRp inh intensity = second read-out of Polio RdRp inh, no call of its own (marks repeat the call); % elongation; measured here: total intensity read-out; formula for this scale not given here;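 total fluorescence in place of polarization; lower means less elongation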
# Starred values were filed as active, the others as inactive. The list is partial. The share of hits here may be higher or lower than overall.
SMILES,Polio RdRp inh,Polio RdRp inh intensity
CCN1CCN(C(=O)c2c(C)nn(-c3ccc(F)cc3)c2-n2cccc2)CC1,103,107
COc1ccc(-c2cc(OC(=O)c3ccc(Cl)cc3)c3c(C)oc(C)c3c(=O)c2)cc1,107,118
O=C(c1ccc2c(c1)N(Cc1ccc(Cl)cc1)C(=O)c1ccccc1S2(=O)=O)N1CCOCC1,109,112
CCOC(=O)c1c(S(=O)(=O)N2CCC(C(=O)Nc3cccc(C#N)c3)CC2)c(C)n(C)c1C,101,97
O=C(Cc1ccc(NC(=O)N2CCSc3ncccc32)cc1)NCc1ccccc1,106,112
COc1ccc(NC(=O)CSc2nc3ccccc3n2CC(=O)N(C)C2CCCCC2)cc1,104,98
CCOc1ccc(OCC)c(NC(=O)C2CCN(S(=O)(=O)c3cn(C)cn3)CC2)c1,113,106
O=C1C(=O)N(C2CCN(S(=O)(=O)c3ccc(F)cc3)CC2)CCN1Cc1ccccc1,113,104
CCOC(=O)c1ccccc1NC(=O)Cn1c(=O)n(-c2ccc(CC)cc2)c(=O)c2c(C)c(C(=O)N(C)C)sc21,107,111
CCN1C(=O)c2ccccc2S(=O)(=O)c2ccc(C(=O)NCc3ccccc3)cc21,106,106
CCc1ccc(NC(=O)N(Cc2c[nH]c3ccccc23)C2CCCCC2)cc1,108,106
CCc1ccc(C(=O)c2cnc3ccc(F)cc3c2S(=O)(=O)c2ccccc2)cc1,106,108

# In another format: 4 of the compounds above.
# Each structure is followed by: Polio RdRp inh, Polio RdRp inh intensity
CCN1CCN(C(=O)c2c(C)nn(-c3ccc(F)cc3)c2-n2cccc2)CC1
  103, 107
O=C1C(=O)N(C2CCN(S(=O)(=O)c3ccc(F)cc3)CC2)CCN1Cc1ccccc1
  113, 104
O=C(c1ccc2c(c1)N(Cc1ccc(Cl)cc1)C(=O)c1ccccc1S2(=O)=O)N1CCOCC1
  109, 112
COc1ccc(-c2cc(OC(=O)c3ccc(Cl)cc3)c3c(C)oc(C)c3c(=O)c2)cc1
  107, 118

# (more compounds)
SMILES,Polio RdRp inh,Polio RdRp inh intensity
Cc1cccc(C)c1NC(=O)Cn1nnc(C(=O)Nc2c(C)cccc2C)c1N,109,108
Cc1cccc(N2CCN(C(=O)CN3C(=O)COc4ccc(S(=O)(=O)N5CCCCCC5)cc43)CC2)c1C,101,103
COc1ccc(OC)c(CCNC(=O)Cn2ncc3c([nH]c4ccccc43)c2=O)c1,120,117
O=C(Nc1cccc(-c2nc3ccccc3o2)c1)c1cc([N+](=O)[O-])ccc1N1CCOCC1,103,106
Cc1cccc(C(=O)Nc2ccc(-c3nc4ccccc4s3)cc2Cl)c1,108,114
CC(=O)Nc1cccc(NC(=O)CSc2nccn2Cc2ccc3c(c2)OCO3)c1,105,113
Cn1c(=O)c(=O)n(C)c2cc(S(=O)(=O)N3CCN(c4ccc(F)cc4)CC3)ccc21,101,96
CCn1cc(C(=O)N2CCN(c3ccc(F)cc3)CC2)c(=O)c2cc(S(=O)(=O)N3CCOCC3)ccc21,101,104
CCOc1ccccc1NC(=O)Cn1c(=O)n(CCCC(=O)NCc2ccc(C)cc2)c(=O)c2ccccc21,112,113
COc1ccc(-c2nc3ccc(C)cn3c2Nc2ccc3c(c2)OCO3)cc1,101,96
Cc1cn2c(=O)cc(COC(=O)COc3ccccc3C)nc2s1,110,107
CCc1cccc(NC(=O)CN(c2ccc(C)c(C)c2)S(=O)(=O)c2ccsc2C(=O)OC)c1,105,114
Cc1ccccc1CSc1nc2cccnc2n1Cc1ccc(C(=O)NC2CC2)cc1,113,115
CCN(c1ccc(OC)cc1)S(=O)(=O)c1c(C(=O)N2CCCCCC2)c(C)n(C)c1C,104,110
Cn1nnnc1SCCNCc1ccc(OCc2ccc(Cl)cc2)cc1,104,103
CCc1nnc2c(N3CCN(c4cccc(C)c4)C(C)C3)nc3ccccc3n12 (stereo not given),111,109
Cc1cc2ccccc2n1CCNC(=O)c1cccc(Br)c1,110,111
COc1ccc(CN(C(=O)c2cc3ccccc3oc2=O)C2CCS(=O)(=O)C2)cc1OC (stereo not given),103,106
CCCCNC(=O)CSc1nc2cc3c(cc2c(=O)n1CCCCCC(=O)NCCc1ccc(OC)c(OC)c1)OCO3,103,106
Cc1ccccc1CSc1cn(CC(=O)N2CCCC2)c2ccccc12,119,113
CC(C)c1ccc2oc(-c3ccc(NC(=O)c4cc5ccccc5o4)cc3)nc2c1,105,106
COc1ccc(-c2cn3nc(N4CCCC(C(=O)Nc5cc(C)ccc5C)C4)sc3n2)cc1 (stereo not given),96,99
O=S(=O)(c1ccc(-c2csc(=Nc3ccc(OC(F)(F)Cl)cc3)n2CCCO)cc1)N1CCCC1,97,89
COc1ccc(C2=NC(C)(C)N(CC(=O)Nc3cccc(C)c3)C2=O)cc1,107,108
Cc1ccc(C(=O)NCc2ccccc2)cc1NC(=O)c1nsc2ccccc12,108,115
COCCOC(=O)c1c(C)n(S(=O)(=O)c2ccc(C)cc2)c2ccc(NS(=O)(=O)c3ccc(C)cc3)cc12,108,109
CCOc1ccc(N2CC(NC(=O)c3ccc(S(=O)(=O)N4CCCCC4)cc3)CC2=O)cc1 (stereo not given),110,111
CCn1c(SCC(=O)Nc2c(C)cccc2C)nnc1-c1nonc1NC(C)=O,103,82
CCN1CCN(c2nc3c(S(=O)(=O)c4ccc(C)cc4)nnn3c3ccsc23)CC1,100,104
CC(NC(=O)Cn1c(-c2cccs2)cc2cc(F)ccc21)c1ccccc1 (stereo not given),114,117
COC(=O)c1c(NC(=O)CCCOc2ccc(C)cc2)sc2c1C(C(=O)OC)CC2 (stereo not given),71*,69*
CC(C)CCNC(=O)Cc1ccc(NC(=O)N2CCCCc3ccccc32)cc1,107,103
COc1ccc(OC)c(C(=O)CSc2ncc3c(n2)-c2ccccc2N(Cc2ccccc2C)S3(=O)=O)c1,111,116
CCOc1ccc(CNC(=O)C2CCN(S(=O)(=O)N3CCC(C)CC3)CC2)cc1OC,113,111
O=C(CN1C=NS(=O)(=O)c2ccccc21)Nc1ccc(Br)cc1,105,102
O=C1c2ccccc2-c2onc3c(N4CCN(C5CCCCC5)CC4)cc(NCCO)c1c23,150,147
COc1cccc(CNC(=O)C2=C(C)C(=O)OC23CCN(C(C)=O)CC3)c1OC,109,107
CCOc1ccc2nc(N3CCCC(C(=O)Nc4cccc(Cl)c4C)C3)sc2c1 (stereo not given),109,108
N#Cc1nc(-c2ccc(COc3ccccc3)o2)oc1N1CCN(c2ccccc2)CC1,113,105
COCCn1c(C)cc(O)c(C(c2ccccc2F)N2CCN(c3ccccc3)CC2)c1=O (stereo not given),114,115
Cc1cccc(N(C)C(=O)CN(C)S(=O)(=O)c2ccc3[nH]c4c(c3c2)CCCC4)c1,107,113
COc1ccc(S(=O)(=O)Nc2cc3c(cc2NCc2ccccc2)n(C)c(=O)n3C)cc1OC,99,100
Cc1nc(-n2nc(C)c(Cc3ccccc3Cl)c2C)sc1C(=O)N1CCC(C)CC1,106,107
Cc1ccc(-c2nnc(SCC(=O)N3CCc4ccccc43)o2)cc1,107,107
Cc1ccc2onc(CNC(=O)NCc3ccc(Cl)cc3)c2c1,109,113
CCOC(=O)c1cc(C)n(CC2CCC(C(=O)Nc3cccc(C)c3)CC2)c1C (stereo not given),104,103
Cc1ccccc1C(=O)Nc1c(C(=O)Nc2cccc(F)c2)oc2ccccc12,101,103
CN(C)CCCN(C(=O)c1ccc(Br)s1)c1nc2ccc(F)cc2s1,108,108
COCCCNc1ncnc2onc(-c3ccc(F)cc3)c12,100,105
Cc1ccc(-c2nnc(Nc3cccc(Br)c3)c3ccccc23)cc1S(=O)(=O)N1CCN(C)CC1,101,104
Cc1ccc(N2CC(NC(=O)Cc3cccs3)CC2=O)cc1 (stereo not given),119,110
Cc1ccc2oc(=O)c3cc(C(=O)NCc4ccc(Cl)cc4)sc3c2c1,106,110
COc1ccccc1NC(=O)CSc1nnc2c3ccccc3n(C)c2n1,101,111
Cc1ccc2c(=O)cc(C(=O)Nc3ccc(S(=O)(=O)N4CCCCC4C)cc3)oc2c1C (stereo not given),107,106
Cc1ccccc1NC(=O)C1CCN(C(=O)c2cnn(-c3ccccc3)c2-n2cccc2)CC1,107,108
CCOC(=O)C1CCCN(C(=O)c2ccc3c(c2)N(Cc2ccccc2)C(=O)c2ccccc2S3(=O)=O)C1 (stereo not given),106,108
CCC(C)NC(=O)c1cc2n(n1)CCCN(Cc1ccc(C)cc1)C2=O (stereo not given),101,107
CN(Cc1nc(-c2ccc(Cl)cc2)no1)S(=O)(=O)c1ccccc1,112,109
Cc1cc(C)c2c(=O)cc(C(=O)Nc3ccc(S(=O)(=O)Nc4onc(C)c4C)cc3)oc2c1,101,107
COc1ccc(NC(=O)CSc2oc(-c3cccs3)nc2S(=O)(=O)c2ccc(Br)cc2)c(OC)c1,111,115
# Continuation:
SMILES,Polio RdRp inh,Polio RdRp inh intensity
CC(C)(C)OC(=O)N1CCC(c2c(C(=O)N3CCN(c4ccccn4)CC3)cnn2-c2ccccc2)CC1,101,107
COc1ccc(CNS(=O)(=O)c2cc3c(cc2Cl)NC(=O)CO3)cc1,104,104
COc1ccc(OC)c(-n2nnc(-c3nc(-c4ccc5c(c4)OCO5)no3)c2C)c1,108,113
Cc1ccc(S(=O)(=O)c2cn(CC(=O)Nc3cccc(Cl)c3)c3ccccc3c2=O)cc1,105,102
Cc1cc(C)c(NC(=O)CSc2nc3ccccc3c3nc(CCn4cncc4C)nn23)c(C)c1,103,110
O=C(c1c[nH]c2ccc(S(=O)(=O)Nc3ccccc3F)cc2c1=O)N1CCCCCC1,107,107
CCc1ccccc1NC(=O)CSc1nnc(-c2nonc2NC(C)=O)n1C,108,100
Cc1ccc(S(=O)(=O)c2nnn3c2nc(NC2CCCCCC2)c2sccc23)cc1C,101,87
Cc1nc(CC(=O)Nc2cccc(C)c2C)cs1,102,109
CCOC(=O)C1CCN(c2nc3c(S(=O)(=O)c4ccccc4)nnn3c3ccc(Cl)cc23)CC1,104,103
CC(C)COc1ccccc1C1CC(=O)Nc2cc3c(cc21)OCO3 (stereo not given),109,114
CCc1ccccc1NC(=O)Cn1c(=O)n(-c2ccc(C)c(C)c2)c(=O)c2oc3ccccc3c21,110,112
CCOc1ccc2c(c1)c(=O)c(S(=O)(=O)c1ccc(C)cc1)cn2CC(=O)Nc1ccc(C)cc1,107,104
CCOC(=O)CSC1=Nc2ccccc2C2=NC(CCC(=O)NCc3ccc(F)cc3)C(=O)N12 (stereo not given),102,107
CCc1ccccc1NC(=O)Cn1nc2c3cc(F)ccc3n(Cc3cccc(C)c3)cc-2c1=O,110,117
COc1ccc(NC(=O)c2ccc(COc3ccccc3OC)o2)cc1OC,108,110
Cc1ccc(NC(=O)CN2C(=O)c3ccccc3Sc3ccc(C(=O)N4CCOCC4)cc32)c(Cl)c1,108,112
O=C(Nc1ccccc1-c1nc2ccccc2s1)c1cc(Cl)cc(Cl)c1,99,103
CCOC(=O)N1CCC(NC(=O)c2cnn(-c3cccc(F)c3)c2-n2cccc2)CC1,105,112
COc1ccc(Nc2nc3ccc(C)cc3nc2-n2nc(C)cc2C)cc1Cl,108,109
Cc1ccc(NC(=O)CSc2nc3nc(C)c(Cc4ccccc4)c(C)n3n2)cc1,110,115
Cc1ccc(C)c(NC(=O)Cn2c(=O)n(Cc3ccco3)c(=O)c3ccc(C(=O)NC4CCCC4)cc32)c1,107,109
Cc1ccccc1NC(=O)c1ccc(CNS(=O)(=O)c2ccc3c(c2)C(C)(C)C(=O)N3C)cc1,119,121
COC(=O)c1ccc(NC(=O)Cn2c(-c3nonc3N)nc3ccccc32)cc1,107,105
CC(C)(C)C(=O)Nc1ccc2nc(SCCOc3ccccc3Cl)sc2c1,111,97
CCOC(=O)c1cccc(NC(=O)CC2C(=O)N(c3ccccc3)C(=O)N2Cc2ccco2)c1 (stereo not given),104,106
Cc1cn2c(=O)c(S(=O)(=O)Nc3ccc(OC(F)(F)F)cc3)c(C)nc2s1,99,93
CC(NC(=O)CSc1nc(-c2ccccc2F)nc2cc(=O)[nH]n12)c1nc2ccccc2n1C (stereo not given),105,102
COc1ccc(S(=O)(=O)c2c(Nc3ccc(F)cc3)sc(C(=O)c3ccc4c(c3)OCO4)c2N)cc1,107,104
COc1ccc(C(=O)Nc2cccc(-c3cn4ccsc4n3)c2)c(OC)c1,99,107

# Structural class: the entries above with two or more sulfur atoms.
SMILES,Polio RdRp inh,Polio RdRp inh intensity
CCc1cccc(NC(=O)CN(c2ccc(C)c(C)c2)S(=O)(=O)c2ccsc2C(=O)OC)c1,105,114
O=S(=O)(c1ccc(-c2csc(=Nc3ccc(OC(F)(F)Cl)cc3)n2CCCO)cc1)N1CCCC1,97,89
COCCOC(=O)c1c(C)n(S(=O)(=O)c2ccc(C)cc2)c2ccc(NS(=O)(=O)c3ccc(C)cc3)cc12,108,109
CCN1CCN(c2nc3c(S(=O)(=O)c4ccc(C)cc4)nnn3c3ccsc23)CC1,100,104
COc1ccc(OC)c(C(=O)CSc2ncc3c(n2)-c2ccccc2N(Cc2ccccc2C)S3(=O)=O)c1,111,116
CN(C)CCCN(C(=O)c1ccc(Br)s1)c1nc2ccc(F)cc2s1,108,108
COc1ccc(NC(=O)CSc2oc(-c3cccs3)nc2S(=O)(=O)c2ccc(Br)cc2)c(OC)c1,111,115
Cc1ccc(S(=O)(=O)c2nnn3c2nc(NC2CCCCCC2)c2sccc23)cc1C,101,87
CC(C)(C)C(=O)Nc1ccc2nc(SCCOc3ccccc3Cl)sc2c1,111,97
Cc1cn2c(=O)c(S(=O)(=O)Nc3ccc(OC(F)(F)F)cc3)c(C)nc2s1,99,93
COc1ccc(S(=O)(=O)c2c(Nc3ccc(F)cc3)sc(C(=O)c3ccc4c(c3)OCO4)c2N)cc1,107,104
